Screening results deposited in PubChem by Fisher Drug Discovery Resource Center.
NPYLR7 ag = mosquito NPYLR7 agonism | activation, % at 10 µM | AID 1259423 | HEK293T NPYLR7/Galpha15, GCaMP6s calcium fluorescence | actives 0.15% (n = 270,000); in the data active = activation above about 40%;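 note: 0% = vehicle and 100% = reference agonist at the receptor; some compounds past the cut are filed as inactive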
NPYLR7 ag max-min = also measured in NPYLR7 ag; calls as there; activation, %; measured here: Max-Min RFU normalised activation; some inactives read as strong as hits;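 span of the calcium signal over five minutes; 0% = vehicle and 100% = native peptide agonist; compound fluorescence can raise it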
* = called active by the depositor; & = joins results of further samples. Only part of the results is shown; the hit share may differ from the screen's.

SMILES	NPYLR7 ag	NPYLR7 ag max-min
CCOc1cc(C(=O)N(C)C)ccc1NC(=O)C1CC1c1ccco1 (stereo not drawn)	2	-18
CCCC(=O)O[C@]1(C(=O)CO)CCC2[C@@H]3CCC4=CC(=O)CC[C@]4(C)C3[C@@H](O)C[C@@]21C (stereo partly drawn)	-11	-14
CNC(=O)C1CN(C(=O)C(C)Oc2ccc(C)cc2)c2ccccc2O1 (stereo not drawn)	6	4
CC(=O)N(Cc1cccnc1)c1nc2c(Cl)cccc2s1	-9	-9
Cc1noc(C)c1C(=O)Nc1ccc(-c2cccc(-c3ccc4c(c3)OCCO4)n2)cc1	1	4
O=C(Nc1ccc(Oc2ccccc2F)cc1)C1CCN(C(=O)CCc2ccccc2)CC1	0&17	-3&5
COc1cc(C#N)cc(Cl)c1OCc1nc(N)nc(N)n1	-1	-3
CCn1ccnc1CN(C)C(=O)c1cc(COc2cccc(F)c2)[nH]n1	17	10
CCOC(=O)c1nn(-c2ccc(F)cc2)c(=O)cc1OC	6	4
O=[N+]([O-])c1ccc(-c2noc(-c3cccc([N+](=O)[O-])c3)n2)cc1	-4	-11
C/C(=C\c1ccc(NS(=O)(=O)c2ccc3[nH]cc(C(=O)O)c(=O)c3c2)cc1)c1nc2ccccc2[nH]1	-15	-26
S=C(NCc1ccc2c(c1)OCO2)NCc1ccc2c(c1)OCO2	1	-1
CCCCCn1c(=O)c2c(nc3n2CCCN3c2cc(C)cc(C)c2)n(C)c1=O	-1	0
O=C1c2ccccc2C(=O)C1c1ccc2ccccc2n1	-2	-4
COc1ccc(-c2nc3n(n2)C(c2ccccn2)C(C(=O)Nc2ccccc2OC)=C(C)N3)cc1 (stereo not drawn)	-1	-3
CCOC(=O)CN(C)C(=O)CN1CCN(c2ccccc2)CC1	3	1
CC1(C)CC2CC(C)(CN2C(=O)c2csc(CSc3nnc(-c4ccco4)n3-c3ccc(F)cc3)n2)C1 (stereo not drawn)	-2	6
CC1Oc2ccc(C#N)cc2N(Cc2ccc(OC(F)(F)F)cc2)C1=O (stereo not drawn)	6	2
O=c1cc(CSc2nnc(-c3cccnc3)o2)c2cc3c(cc2o1)CCC3	-1	-3
COc1ccccc1CNC(=O)C(C)Sc1nnnn1C(C)(C)C (stereo not drawn)	5	8
Cc1cc(C)n(CC(C)NC(=O)c2cccc(NCc3cccnc3)c2C)n1 (stereo not drawn)	5	4
CCOc1ccccc1N1CCN(C(=O)CCc2ccccc2)C(C)C1=O (stereo not drawn)	11	17
CC(C)Oc1ccc(C(=O)Nc2c3c(nn2CC(=O)NCc2ccco2)CSC3)cc1	-3	5
O=C(O)c1cnc(/C=C/c2cc(Br)cs2)s1	0	0
COCCNc1oc2c(c1-c1ccc([N+](=O)[O-])cc1)c(=O)oc1c(C)cccc12	-7	-9
O=C(COc1cc(Cl)ccc1Cl)NC(c1ccccc1)C1CC1 (stereo not drawn)	-4	-9
CC1CN(S(=O)(=O)c2cccc(C(=O)NC3CCSc4ccc(Cl)cc43)c2)CC(C)O1 (stereo not drawn)	-4	-2
C=CCCOC(=O)N1CC(=O)N(C2Cc3ccccc3C2)CC(O)C1 (stereo not drawn)	6	18
CCN(CC)c1ccc(CN2CCn3cncc3C2)cc1	8	6
C[C@@H]1Cc2nc(C(C)(C)C)ncc2C(=O)N1Cc1cc(F)ccc1Cl	7	0
CNC(c1cc2ccccc2[nH]1)c1nnnn1-c1ccc(Cl)cc1 (stereo not drawn)	-1	-4
CN(C)S(=O)(=O)CCCN1CCCCC1c1nc2ccc(F)cc2[nH]1 (stereo not drawn)	-11	-13
CCn1ncnc1CN1CCCN(Cc2ccc(F)cc2)C(C(C)C)C1 (stereo not drawn)	3	4
CCOC(=O)CC(=O)N1CCC(=O)N(CC(=O)OCC)c2ccccc2C(O)C1 (stereo not drawn)	5	15
CCCCOc1ccccc1-c1cc2c(SCC(=O)Nc3ccc(C#N)cc3)nccn2n1	0	-5
CNC(=O)c1ccc(S(=O)(=O)N(C)c2ccc(Cl)cn2)cc1	-3&12	-4&8
Cc1cc(C)c(S(=O)(=O)N(Cc2nnc(-c3ccc(Cl)cc3)o2)C2CC2)c(C)c1	2	17
CN(c1ccc2ccccc2n1)S(=O)(=O)CC1CCOC1 (stereo not drawn)	0	0
COc1ccc(C2=NNC(=NC3CC3)SC2)cc1Br	-4	-5
O=C(c1cccc(F)c1)N(Cc1nccn1Cc1ccccc1)C1CC1	5	10
CC(=O)Nc1cccc(C(=O)Nc2ccc(Br)cc2F)n1	7	7
Cc1nc(C)c(CN2CCC(C(=O)Nc3ccc(Oc4cccnc4)cc3)CC2)nc1C	13	3
COc1ccc(NC(=O)NNC(=O)CSc2nnc(-c3ccc(OC)c(OC)c3)n2-c2ccccc2)cc1	8	16
CC(=O)NC(C(=O)N1CCc2c(cnc(C)c2CNC(=O)c2ccsc2)C1)C(C)C (stereo not drawn)	1	-4
CC(C)c1ccc(NC(=O)N2CCc3nc(NCc4cccc(Oc5ccccc5)c4)ncc3C2)cc1	-3	-4
O=C1COCc2cc(-c3cc(F)cc(F)c3)ccc2N1CC1CC1	7	5
O=S(=O)(c1ccc(Cl)cc1)N1CCC(Cc2ccc(-c3ccccc3)cc2)CC1	3	-1
COc1ccc(CCNC(=O)CN2CCN(c3cn[nH]c(=O)c3)CC2)cc1	10	9
Cc1nc2cc(OCc3cc(C(=O)N(C)CC4Cc5ccccc5O4)no3)ccc2s1 (stereo not drawn)	1	-2
Cc1cn(CC(=O)Nc2cccc(C(=O)N(C)C)c2)cc1C#N	-2&1	-3&-2
Cc1ccccc1C(=O)NC(CC(C)C)C(=O)N=c1sccn1C (stereo not drawn)	-3	-8
CCN1CCN(C(=O)c2cccc(OC3CCN(S(C)(=O)=O)CC3)c2)[C@@H](C)C1=O	14	6
O=C(NCCc1nnc2ccc(SCc3c(F)cccc3Cl)nn12)c1ccccc1	9	3
CC1CC(=O)NN1CC(=O)N(C(C)C)C(C)C (stereo not drawn)	-10	-11
O=C(NCCc1ccc(Cl)cc1Cl)c1cc(-c2ccc(F)cc2)nc2cc(-c3ccccc3)nn12	14	12
O=c1[nH]c(CCN2CCCC2Cc2ccccc2)nc2ccccc12 (stereo not drawn)	-6	-5
CCOc1ccc(-c2cnc(-c3ccncc3)[nH]2)cc1OCC	1	-1
COC(=O)[C@H](c1ccccc1Cl)N1CCc2sccc2C1	-15&-4&-4	-20&-7&-10
CCNC(=O)N1CCSC1c1ccc(OC)c(OCc2ccccc2)c1 (stereo not drawn)	3	3
CCCc1cc(=O)[nH]c(-n2nc(C)cc2NC(=O)c2ccccc2[N+](=O)[O-])n1	11	6

A draw from above in order of SMILES length, falling.
SMILES	NPYLR7 ag	NPYLR7 ag max-min
COc1ccc(NC(=O)NNC(=O)CSc2nnc(-c3ccc(OC)c(OC)c3)n2-c2ccccc2)cc1	8	16
O=C(NCCc1ccc(Cl)cc1Cl)c1cc(-c2ccc(F)cc2)nc2cc(-c3ccccc3)nn12	14	12
CC(C)c1ccc(NC(=O)N2CCc3nc(NCc4cccc(Oc5ccccc5)c4)ncc3C2)cc1	-3	-4
CCCc1cc(=O)[nH]c(-n2nc(C)cc2NC(=O)c2ccccc2[N+](=O)[O-])n1	11	6
CC(=O)NC(C(=O)N1CCc2c(cnc(C)c2CNC(=O)c2ccsc2)C1)C(C)C (stereo not drawn)	1	-4
Cc1nc(C)c(CN2CCC(C(=O)Nc3ccc(Oc4cccnc4)cc3)CC2)nc1C	13	3
Cc1nc2cc(OCc3cc(C(=O)N(C)CC4Cc5ccccc5O4)no3)ccc2s1 (stereo not drawn)	1	-2
O=C(NCCc1nnc2ccc(SCc3c(F)cccc3Cl)nn12)c1ccccc1	9	3
O=C(c1cccc(F)c1)N(Cc1nccn1Cc1ccccc1)C1CC1	5	10
Cc1cn(CC(=O)Nc2cccc(C(=O)N(C)C)c2)cc1C#N	-2&1	-3&-2
CCNC(=O)N1CCSC1c1ccc(OC)c(OCc2ccccc2)c1 (stereo not drawn)	3	3
CCOc1ccc(-c2cnc(-c3ccncc3)[nH]2)cc1OCC	1	-1
COC(=O)[C@H](c1ccccc1Cl)N1CCc2sccc2C1	-15&-4&-4	-20&-7&-10
CC(=O)Nc1cccc(C(=O)Nc2ccc(Br)cc2F)n1	7	7
COc1ccc(C2=NNC(=NC3CC3)SC2)cc1Br	-4	-5
CC1CC(=O)NN1CC(=O)N(C(C)C)C(C)C (stereo not drawn)	-10	-11

The listing continues:
SMILES	NPYLR7 ag	NPYLR7 ag max-min
Cc1cccc(COC(CN2CCN(S(=O)(=O)c3ccc(C(F)(F)F)cc3)CC2)c2ccc(Cl)cc2)c1 (stereo not drawn)	22	10
CCCOC(=O)C1=C(C)NC2=C(C(=O)CC(c3ccccc3)C2)C1c1ccc(CC)cc1 (stereo not drawn)	6	17
O=C(NCCc1ccccc1)c1cc2ccccc2oc1=O	-6	-10
Cc1nc(-n2cnnc2)ccc1-c1cccc(C(C)N(C)C)c1 (stereo not drawn)	11	12
COc1ccc(-c2noc(-c3ccc(OC)cc3)n2)cc1	11	9
CCCc1ccc(OCC(=O)NNC(=O)c2cccnc2)cc1	-6	-9
COCCn1c(=NC(=O)c2ccno2)sc2cc(S(C)(=O)=O)ccc21	-3	-9
CCN(CC)C(=O)Oc1ccc2c(ccn2Cc2cccc(C)c2)c1NC(=O)CCCCC(=O)OC	3	2
COc1ccc(CN(C(=O)OC(C)(C)C)C2CCC(C(=O)N3CCOC(COCc4cccc(C)c4)C3)CC2)cc1C (stereo not drawn)	5	3
CNc1nc(CC(C)=O)ns1	15	10
CCc1nc2ccc(C(=O)N(C)Cc3ccccc3)cn2c1N(C)C(=O)c1cccc(OC)c1	2	20
Cn1c(COc2ccc3c(c2)CCC3)cc(=O)n(C)c1=O	6	4
CCOC(=O)N1CCC(N2CCCC(CNC(=O)c3n[nH]c4ccccc34)C2)CC1 (stereo not drawn)	2	1
Cc1ccnc(NCCNC(=O)c2nn(C)c(=O)c3ccccc23)c1	4	-3
O=C(c1ccccc1OC1CCN(Cc2ccccn2)CC1)N1CCCCO1	5	4
CCOC(=O)Cn1cnc2c(nnn2-c2ccc(F)cc2)c1=O	8	10
COc1ccccc1Oc1cc(Cl)ncn1	2	4
CCOc1c(CC)cnc2c1c(=O)n(CC(=O)NC(C)C)c(=O)n2C	-3	-3
COc1ccc(C(=O)Nc2ccc(N3CCC(N(C)Cc4ccon4)CC3)cc2)cc1	16	8
CCCCOc1ccc(C(=O)Nc2cccc(C3SCC(=O)N3c3ccc(C(F)(F)F)cc3)c2)cc1 (stereo not drawn)	8	9
COc1ccc(C(=O)NC2CCC(NC(=O)[C@H]3CCCN3C(=O)c3ccc(C(F)(F)F)cc3)CC2)cc1 (stereo partly drawn)	1	7
O=C(Cn1c(CO)cnc1SCCc1ccccc1)NCc1ccc(Cl)cc1	2	0
CCCCCCn1c(CN2CCCCC2)nc2c1c(=O)n(C)c(=O)n2C	6	3
CCCCOc1ccc(C2=N/C(=C\c3ccc(C(C)C)cc3)C(=O)O2)cc1	-2	-7
O=C(CSc1ncnc2sc3c(c12)CCC3)Nc1ccccc1	-4	-7
CC1(C(=O)Nc2ccc3c(c2)OCCO3)CCN1CCc1ccccc1 (stereo not drawn)	5	-2
Cc1cc(SCC(=O)c2ccc([N+](=O)[O-])cc2)nc(=O)[nH]1	-1	-1
CCOc1ccc(NC(=O)CSc2ncc(S(=O)(=O)c3ccc(C)c(Cl)c3)c(=O)[nH]2)cc1	4	2
CSc1nnc(C)c(=O)n1COC(=O)c1cccc(F)c1	3	0
CCOC(=O)N1CCN(S(=O)(=O)c2ccc(C)s2)CC1	1	-2

Single records (already shown).
CCOc1c(CC)cnc2c1c(=O)n(CC(=O)NC(C)C)c(=O)n2C in the list: NPYLR7 ag: -3; NPYLR7 ag max-min: -3
CCCCOc1ccc(C2=N/C(=C\c3ccc(C(C)C)cc3)C(=O)O2)cc1 in the list: NPYLR7 ag: -2; NPYLR7 ag max-min: -7

Later entries.
SMILES	NPYLR7 ag	NPYLR7 ag max-min
COc1ccc(CCN(Cc2sccc2C)C(=O)CN(CC(C)C)C(=O)Nc2cccc(F)c2)cc1OC	-2	10
COc1ccccc1-n1c(SCC(=O)Nc2ccccc2)nc2c(c1=O)SCC2	-1	-2
COc1ccc2c(c1)CN(CCS(C)(=O)=O)C(c1ccccc1)C2 (stereo not drawn)	-6	519
COC(=O)C(C#N)c1nc2ccccc2nc1NC(c1ccccc1)c1nccn1C (stereo not drawn)	0	4
Cc1cc(C(=O)CSc2nn3c(=O)c(C(C)(C)C)nnc3s2)c(C)n1C	5	4
Cc1nc2c(C(=O)N3CCCN(CC4CC4)C(C(C)C)C3)cccc2[nH]1 (stereo not drawn)	4	0
O=C(Cc1cccs1)Nc1ccc2c(c1)N(C(=O)c1ccco1)CC2	19	21
COc1ccc(-n2nc(C(=O)NCc3ccco3)c(=O)n(Cc3cccc(OC)c3)c2=O)cc1	4	10
CC1CN(c2ccccc2)c2nc3c(c(=O)n(C)c(=O)n3C)n2C1 (stereo not drawn)	20	11
COc1ccc(OC)c(NCCn2c(C)c(C)n3c4c(=O)n(C)c(=O)n(C)c4nc23)c1	3	25
COc1cccc2c1OC1(CCN(C(=O)Cc3ccccc3Oc3ccccc3)CC1)OC2	4	-8
O=C(NCCCNC(=O)[C@H]1CCCN1C(=O)C(Cl)c1ccccc1)c1ccc(F)cc1 (stereo partly drawn)	3	15
CCCC(Sc1nnc(NC(=O)CSc2ccccc2)s1)C(=O)OCC (stereo not drawn)	3	9
O=C(NCc1nnc(SCC(=O)N2CCc3ccccc32)n1-c1ccc([N+](=O)[O-])cc1)c1cccs1	-4	-3
